UCH37 inh: human UCH37 deubiquitinating enzyme inhibition. purified proteasome/UCH37, Ub-AMC cleavage fluorescence. inhibition, % (no concentration beside the values). hit rate 0.33% among 330,000. AID 588478;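 active = mean of two replicates above 20%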;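 also: 0% = compound-free wells with enzyme and 100% = wells lacking proteasome; stock transfer was 100 nL into about 20 µL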
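Schedule: 30 min plus 25 min, room temperature / Material: human UCH37 within purified proteasomes / Technique: AMC fluorescence intensity at 355/460 nm / Buffer or medium: pH 7.4 Tris-HCl (50 mM) with ovalbumin, ATP-MgCl2, DTT / Controls: wells without proteasome as full block, compound-free enzyme plus substrate as uninhibited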
Vif TR-FRET: inhibitors of Vif binding to APOBEC3G peptide, primary screen, biochemical, TR-FRET, GST-Vif 1-94, biotin-A3G peptide, dose response retest (AID 1117319). TR-FRET GST-Vif / biotin-A3G peptide binding; higher % means a stronger effect; test concentration not given here; strong numbers were not always called active. one-dose inhibition, %; IC50 in µM for titrated hits. hit rate 0.57% among 260,000;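 active = above the screen mean plus three standard deviations and confirmed in dose response; inconclusive = results disagree or hit not tested in dose response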;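 also: Vif residues 1-94 fused to GST binding biotinylated APOBEC3G peptide 110-148; 0% = full assay without inhibitor and 100% = GST in place of GST-Vif; retest series ran down from 100 µM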
FGF22 binding: FGF22 (human) thermal shift binding. Q9HCT0. recombinant FGF22 thermal shift, SYPRO orange fluorescence; percent of sucrose octasulfate shift, DMSO zero. calls only at 9.99 µM. hit rate 1.5% among 340,000. AID 651658;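 active = melting point raised past a set limit in the mean and every replicate; inconclusive = no clear call; three in four hits are not shown here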
HNF4A DNA FP: change in binding of human HNF4 alpha to DNA. P41235. activity change, % at 10 µM. HNF4a-FITC DNA binding, fluorescence polarization, 1 h. AID 1224865. hit rate 0.3% among 360,000; in the data active = activity change above about 30%, passing the limit was not always enough;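 also: controls were the assay level and a saturating level of protein; the project sought stronger binding though the title names inhibitors; some compounds called inactive have numbers as strong as hits; positive values seem to mean higher polarization but the record does not say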
Target sequence (P41235 whole entry, looked up): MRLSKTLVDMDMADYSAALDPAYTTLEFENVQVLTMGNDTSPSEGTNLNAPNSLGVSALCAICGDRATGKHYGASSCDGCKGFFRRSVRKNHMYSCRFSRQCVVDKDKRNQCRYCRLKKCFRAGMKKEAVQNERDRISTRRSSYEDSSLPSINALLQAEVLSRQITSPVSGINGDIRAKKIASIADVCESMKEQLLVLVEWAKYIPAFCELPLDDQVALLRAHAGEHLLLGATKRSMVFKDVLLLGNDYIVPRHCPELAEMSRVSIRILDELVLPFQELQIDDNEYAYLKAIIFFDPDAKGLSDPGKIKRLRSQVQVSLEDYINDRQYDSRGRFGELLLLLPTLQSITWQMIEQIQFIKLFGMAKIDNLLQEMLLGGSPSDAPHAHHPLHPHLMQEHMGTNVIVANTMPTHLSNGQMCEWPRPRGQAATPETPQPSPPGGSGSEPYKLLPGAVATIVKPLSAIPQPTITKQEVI
AF4-AF9 inh: MLL-AF4/AF9 protein interaction inhibition; AID 651704; AlphaScreen, biotin-AF4 peptide binding to FLAG-AF9; hit rate 0.47% among 350,000; inhibition, % at 10 µM; P42568;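 active = every replicate reaching a set inhibition limit, whatever the replicate mean, cut at about 25% in these data; inconclusive = mean inhibition reaches that limit but some replicates miss it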;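 also: 0% = plate neutral control median and 100% = total signal loss; the record names both 10 and 1 µM as test concentration; the first replicate is given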
Target sequence (P42568 whole entry, looked up): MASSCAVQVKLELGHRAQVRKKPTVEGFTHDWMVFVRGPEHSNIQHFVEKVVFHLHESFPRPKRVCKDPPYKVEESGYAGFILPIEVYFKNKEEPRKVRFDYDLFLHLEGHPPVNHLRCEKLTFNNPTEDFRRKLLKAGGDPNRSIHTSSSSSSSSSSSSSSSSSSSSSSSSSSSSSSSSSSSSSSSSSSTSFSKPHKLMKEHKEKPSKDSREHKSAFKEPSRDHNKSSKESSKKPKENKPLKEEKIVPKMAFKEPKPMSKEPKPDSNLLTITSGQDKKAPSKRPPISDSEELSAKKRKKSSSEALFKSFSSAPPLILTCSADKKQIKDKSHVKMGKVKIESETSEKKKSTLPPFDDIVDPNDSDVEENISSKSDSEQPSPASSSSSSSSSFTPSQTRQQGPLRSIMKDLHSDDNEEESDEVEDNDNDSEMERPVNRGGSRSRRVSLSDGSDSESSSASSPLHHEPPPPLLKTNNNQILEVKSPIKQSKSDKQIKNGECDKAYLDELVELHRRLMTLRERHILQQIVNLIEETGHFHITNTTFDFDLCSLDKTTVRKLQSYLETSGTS
RanGTP-Imp inh: inhibitors of RanGTP-importin-beta interaction, primary screen, biochemical, FRET, CFP-Ran, YFP-importin-beta, homogeneous; cell-free CFP-Ran/YFP-importin-beta FRET ratio; inhibition, % (test concentration not listed); hit rate 1.1% among 300,000; AID 2216;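 active = most replicates above 15%; inconclusive = exactly half above 15%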;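 also: 0% = DMSO wells and 100% = Ran loaded with GDP instead of GTP; wells of about 40 µL received 100 nL stock; the first replicate is given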
E coli growth: inhibitors of Escherichia coli growth | OD600 absorbance (no concentration beside the values) | hit rate 0.21% among 330,000 | OD600, 23 h; active compounds read low | AID 1053175;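 active = OD600 absorbance below the run mean of sample wells minus 3.6 SD, in any replicate, cut at about 0.56 in these data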;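 also: stock transfer was 300 nL into about 60 µL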
Active calls of the source: *; i = inactive; u = inconclusive; x = not tested or not shown. This is a subset; count on the stated rates, not on these rows.

Vif TR-FRET	AF4-AF9 inh	E coli growth	UCH37 inh	RanGTP-Imp inh	FGF22 binding	HNF4A DNA FP	mol
12%	-0.3	0.65	-0.2	x	i	6.6	O=C(Cc1ccc(S(=O)(=O)N2CCOCC2)s1)OCc1ccc(Cl)cc1
7%	1.3	0.55	8.3	3.3	i	0.0	Cc1cccc(NC(=O)c2ccc([N+](=O)[O-])s2)n1
13%	x	0.68	1.0	-4.6	x	0.1	COc1cccc(NC(=O)C2C3C=CC4(O3)C2C(=O)N(C2CC2)C4C(=O)NC2CCCCC2C)c1 (stereo not drawn)
x	1.5	x	x	x	i	3.6	C=C1C(=O)[C@]23C[C@H]1CC[C@H]2[C@]1(C)[C@@H](OC(C)=O)CC[C@@](C)(C(=O)OC)[C@H]1C[C@@H]3OC(C)=O
-3%	3.0	0.65	4.1	2.4	i	-2.2	CCOc1ccc(NC(=S)NN2CCN(C)CC2)cc1
-6%	x	0.74	-12	-0.2	x	-1.7	O=C(Nc1ccsc1C(=O)NC1CCCCC1)c1ccc(F)cc1
2%	x	0.68	2.8	-0.1	x	1.1	Cc1cccc2cc(CN(CCc3ccccc3)C(=O)N3CCOCC3)c3nnnn3c12
3%	1.0	0.68	1.0	1.5	i	-2.6	CCC1(c2ccccc2)NC(=O)N(CC(=O)Nc2ccccc2C(=O)NC2CCCC2)C1=O (stereo not drawn)
9%	x	0.69	-124	4.4	x	-0.2	COc1cccc(-c2nnc(-c3ccc(C)o3)o2)c1
-7%	-1.1	0.66	-2.2	0.3	i	-3.2	CCOc1ccc(-c2csc(NC(=O)CSCC(=O)O)n2)c2ccccc12
0%	3.9	0.7	1.3	7.4	i	-0.7	O=C(Cc1ccccc1)n1nc(-c2ccccc2)nc1NCc1ccco1
-4%	-0.9	0.64	2.7	-1.9	i	-0.9	O=C(c1ccc([N+](=O)[O-])cc1)N1CCc2ccccc2C1

Additional results:
Vif TR-FRET	AF4-AF9 inh	E coli growth	UCH37 inh	RanGTP-Imp inh	FGF22 binding	HNF4A DNA FP	mol
-2%	x	0.69	2.6	-2.2	x	3.5	CCCCCCOc1ccc(C(CC(=O)O)C(N)=O)cc1 (stereo not drawn)
-5%	0.7	0.72	2.9	-2.8	i	1.8	Cc1cc(C)nc(-n2ncc3c2CC(c2ccccc2)CC3=O)n1 (stereo not drawn)
-3%	x	0.74	6.0	5.5	x	-2.3	Cc1ccc(S(=O)(=O)NC2=NCN(CCN3CCOCC3)CN2)cc1
69%	x	0.69	3.1	3.1	x	-2.7	Cc1c(C(=O)Nc2cccc([N+](=O)[O-])c2)csc1-c1ccccc1
x	-1.5	0.7	2.8	-3.0	i	1.4	Cc1ccc(NC(=O)C2CCN(C(=O)c3ccccc3C)CC2)nc1
x	0.5	0.71	-0.8	0.4	i	-3.0	OCC1OC(Oc2c[nH]c3ccccc23)C(O)C(O)C1O (stereo not drawn)
0%	x	0.67	1.7	0.9	x	1.8	COc1ccc2c(C)cc(=O)[nH]c2c1
3%	x	0.82	-305	-2.3	x	2.7	O=C(c1ccccc1)n1ccc(-c2cnc(-c3ccccc3)s2)n1
x	1.6	0.67	2.3	-0.9	i	0.4	Cc1cc(N2CCCCC2)ccc1[N+](=O)[O-]
-8%	-1.4	0.73	3.5	1.5	i	-1.1	COc1ccc(Br)cc1CN(C)C(=O)Cc1ccc(S(=O)(=O)N2CCOCC2)s1
x	-2.3	x	x	x	i	2.4	CC(C)(C)C(C(=O)NCc1ccccc1)N1CCN(CCN2CCOCC2)CC1 (stereo not drawn)
1%	x	0.71	-3.7	4.7	x	1.8	Cc1ccnc(NS(=O)(=O)c2cccs2)c1

Next section:
Vif TR-FRET	AF4-AF9 inh	E coli growth	UCH37 inh	RanGTP-Imp inh	FGF22 binding	HNF4A DNA FP	mol
2%	11	0.67	0.9	u	i	-2.4	COc1ccc(C)cc1NC(=O)CNc1ccccc1CN(C)C1CCCCC1
-3%	x	x	x	-3.9	x	-1.2	CN(C)/C=N/c1sccc1C(N)=O
4%	-3.2	0.74	-6.0	0.0	i	0.0	O=C1C(C2=NC(c3ccccn3)C3C(=O)N(c4ccccc4)C(=O)C23)=C(O)c2ccccc21 (stereo not drawn)
0%	x	0.77	-3.8	-2.7	x	-0.7	COc1cc(OC)cc(-c2nc3ccccc3c(=O)o2)c1
29%	-3.3	0.68	4.5	-0.1	i	-6.7	O=C(COC(=O)c1ccc(Br)o1)NCCc1ccccc1
-3%	-0.3	0.67	1.4	-2.1	i	-3.9	COC(=O)Cn1nc(-c2ccc(C)cc2)c2ccccc2c1=O
3%	x	x	x	2.9	x	-0.2	CCn1cc(/C=N\NC(=O)c2csc3ccccc23)c(C)n1
x	-0.5	0.69	2.1	2.1	i	-0.5	NC(=O)CSc1nccn1Cc1ccc(Cl)cc1
x	2.1	0.68	1.6	u	i	4.3	CC(NC(=O)/C=C/c1ccco1)c1nc2ccccc2n1Cc1cccc(Cl)c1 (stereo not drawn)
-10%	0.1	x	x	-3.7	i	-2.8	CC/C(=N\Nc1ccccc1[N+](=O)[O-])c1ccc(O)cc1
15%	x	x	1.4	3.1	x	x	CC(=O)O[C@H]1CC(C)(C)C(=C=C/C(C)=C/C=C/C(C)=C/C=C/C=C(C)/C=C/C=C(\C)C(=O)C[C@@]23O[C@]2(C)C[C@@H](O)CC3(C)C)[C@](C)(O)C1
x	-1.2	x	x	x	i	2.7	CC1(C(=O)NS(=O)(=O)c2ccccc2C(F)(F)F)CCN1C(=O)CC1CCCCC1 (stereo not drawn)

Other compounds
Vif TR-FRET	AF4-AF9 inh	E coli growth	UCH37 inh	RanGTP-Imp inh	FGF22 binding	HNF4A DNA FP	mol
x	-5.3	0.73	3.2	-1.0	i	0.4	COC(=O)c1cc(S(=O)(=O)N2CCCCCC2)cn1C
x	-1.3	0.78	3.0	x	i	-1.1	CC(C)(C)OC(=O)C[C@@H]1C/C=C\C[C@@H](CC(=O)NCCO)C(=O)NC[C@H](c2ccccc2)OC1=O
-9%	-0.4	0.69	3.0	-0.8	i	-3.5	Cc1ccc(OCC(=O)Nc2ccc(F)cc2)c([N+](=O)[O-])n1
4%	-1.1	0.73	-0.3	3.8	i	4.2	CCOC(=O)c1oc2ccccc2c1NC(=O)c1ccco1
14%	1.0	0.73	-1.4	5.0	i	5.3	CC(=O)c1ccccc1C(=O)N1CCCC(CCC(=O)N2CCN(c3ccccn3)CC2)C1 (stereo not drawn)
x	-0.3	x	x	x	i	0.8	Cc1ccc(S(=O)(=O)N2C[C@H]3C(=O)C[C@@H](c4ccccc4)N(S(=O)(=O)c4ccc(C)cc4)[C@H]3C[C@H]2c2ccccc2Cl)cc1
-9%	-0.9	0.7	0.6	-0.3	i	0.0	Cc1cc(F)ccc1NC(=O)c1cccnc1
x	0.0	0.7	6.2	7.8	i	-1.0	CC(C)c1nnc(NC(=O)CS(=O)(=O)c2ccccc2)s1
-1%	11	0.63	2.4	-1.9	i	-0.9	Cc1cccc(NC(=S)NC2CC3CCCC(C2)N3Cc2cccs2)c1C (stereo not drawn)
-9%	-2.9	0.72	1.2	-2.7	i	1.9	Cc1ccccc1-c1nnc(SCC#N)o1
0%	-3.9	0.67	3.3	-1.5	i	0.9	Cc1ccc(C(=O)Oc2ccc3c(c2)ncn3C)cc1
0%	3.2	0.64	1.1	1.6	i	-0.3	CC(=O)Nc1c2c(nn1-c1ccc(C)cc1C)CSC2

Overlap with the part before: 6 compounds; new compounds follow.
Vif TR-FRET	AF4-AF9 inh	E coli growth	UCH37 inh	RanGTP-Imp inh	FGF22 binding	HNF4A DNA FP	mol
-9%	-0.9	0.7	0.6	-0.3	i	0.0	Cc1cc(F)ccc1NC(=O)c1cccnc1
x	0.0	0.7	6.2	7.8	i	-1.0	CC(C)c1nnc(NC(=O)CS(=O)(=O)c2ccccc2)s1
-1%	11	0.63	2.4	-1.9	i	-0.9	Cc1cccc(NC(=S)NC2CC3CCCC(C2)N3Cc2cccs2)c1C (stereo not drawn)
-9%	-2.9	0.72	1.2	-2.7	i	1.9	Cc1ccccc1-c1nnc(SCC#N)o1
0%	-3.9	0.67	3.3	-1.5	i	0.9	Cc1ccc(C(=O)Oc2ccc3c(c2)ncn3C)cc1
0%	3.2	0.64	1.1	1.6	i	-0.3	CC(=O)Nc1c2c(nn1-c1ccc(C)cc1C)CSC2
13%	-1.5	0.7	3.4	-1.4	i	-3.7	CCOC(=O)c1c(C)[nH]c(C)c1C(=O)COC(=O)c1cc2ccccc2cc1O
-4%	0.6	0.67	-0.4	3.2	i	-1.1	Cc1cccc(N2CCN(C(=O)C3CCN(S(=O)(=O)c4c(C)noc4C)CC3)CC2C)c1 (stereo not drawn)
x	-11	x	x	x	i	2.0	Cc1ccccc1N=C1Nc2ccccc2N[C@]12C[C@H]1CCC(=O)N3CC[C@@H](C2)[C@@H]13
x	8.8	0.7	-0.7	x	i	-3.6	CSc1ccccc1NC(=O)CN(C)CC(=O)Nc1ccc(Cl)cc1[N+](=O)[O-]
4%	-0.2	0.69	2.6	x	i	6.4	Cc1ccc(NC(=O)Cc2nc(COC(=O)C(C)NS(=O)(=O)c3ccc(C)cc3)cs2)cc1 (stereo not drawn)
0%	-4.1	0.69	0.4	u	i	-1.4	N/C(=N\OC(=O)C1CCCCC1)c1cccnc1
u	x	0.7	8.0	-0.2	x	0.9	CCOC(=O)c1ccc(N2N=C(C)/C(=C/C=C/c3ccco3)C2=O)cc1
22%	x	x	x	-4.2	x	0.7	COc1ccc(CSCC(=O)N/N=C/c2ccccc2OCc2ccccc2)cc1
x	-40	0.69	5.4	-8.4	i	-0.1	CC(=O)Nc1ccc(S(=O)(=O)N2CCN3CCCC3C2)cc1 (stereo not drawn)
x	x	0.69	0.4	3.4	x	-3.7	Cc1ccc(C)c(OCCn2ccnc2)c1
3%	-3.2	0.68	1.7	x	i	-1.0	COc1ccccc1C(CNC(=O)COc1ccccc1C)N1CCCC1 (stereo not drawn)
x	1.4	0.7	0.6	4.7	i	3.1	Cc1ccc(NC(=O)C2CCN(S(=O)(=O)c3ccc4c(c3)NC(=O)C(C)S4)CC2)c(C)c1 (stereo not drawn)

Continued.
Vif TR-FRET	AF4-AF9 inh	E coli growth	UCH37 inh	RanGTP-Imp inh	FGF22 binding	HNF4A DNA FP	mol
13%	6.7	0.67	-2.3	1.4	i	1.9	COc1cc(SC)ccc1C(=O)Nc1ccc2c(c1)OCCO2
x	0.7	x	1.8	u	i	7.9	COC(C[C@@H](O)CC(=O)[C@@H](C)OCc1ccccc1)OC
x	2.9	x	x	x	i	-1.9	CCNC(=O)C1(C)CCCN(Cc2cccc3c2OCCO3)C1 (stereo not drawn)
x	-1.5	0.67	1.2	x	i	5.0	CN(C)c1nc(Oc2ccc(OCCOc3ccccc3)nn2)nc(N(C)C)n1
x	x	0.63	1.4	x	i	-2.5	O=c1[nH]c(=O)n([C@H]2C[C@H](O)[C@@H](CO)O2)cc1Br
-6%	x	0.68	2.4	-7.1	x	-1.3	O=C(C1CC1)N1CCN(C(c2ccccc2)c2ccccc2)CC1
x	2.6	0.69	3.2	32*	i	-0.1	Nc1cc(=O)[nH]c(SCC(=O)Nc2ccc(Oc3ccccc3)cc2)n1
4%	0.6	0.63	-0.2	x	i	2.7	O=C(Nc1ccccn1)c1ccc(S(=O)(=O)N2CCCCCC2)cc1
-1%	x	0.69	3.6	2.4	x	-1.4	COc1cccc(C2N(c3ccc(Cl)c(Cl)c3)C(=O)C3CCCN32)c1OC (stereo not drawn)
-4%	-2.4	0.68	5.2	-6.3	i	-0.5	CC(C)(C)c1ccc(OCc2cnc(Cl)s2)cc1
x	3.4	0.67	2.3	0.1	i	-4.0	Cc1ccc(NC(=O)[C@H](NC(=O)[C@@H]2Cc3ccccc3CN2)c2ccccc2)cc1C
14%	-1.3	0.7	0.9	-1.3	i	1.4	O=C(Nc1ccc(SC(F)(F)F)cc1)c1ccccn1
